High-throughput results as filed in PubChem BioAssay.
NPYLR7 ag: mosquito NPYLR7 agonism | hit rate 0.15% among 270,000 | activation, % at 10 µM | HEK293T NPYLR7/Galpha15, GCaMP6s calcium fluorescence; in the data active means activation above about 40%;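 further: 0% = vehicle and 100% = reference agonist at the receptor; some compounds past the cut are filed as inactive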
NPYLR7 ag max-min: recorded beside NPYLR7 ag, whose call it bears; activation, %; measured here: Max-Min RFU normalised activation; some inactives read as strong as hits;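 span of the calcium signal over five minutes; 0% = vehicle and 100% = native peptide agonist; compound fluorescence can raise it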
Starred values were filed as active, the others as inactive; & = joins results of further samples.

Each structure is followed by: NPYLR7 ag	NPYLR7 ag max-min
CCC(=O)N1c2ccccc2N=C2CC(C)(C)CC(=O)C2C1c1ccc(F)cc1 (centres undefined)
    2	2
CCOC(=O)c1ccc(Oc2nc(NC(C)C)nc(NC(C)CC)n2)cc1 (centres undefined)
    4	3
COc1ccc(C2=NN(C(=O)c3cccc([N+](=O)[O-])c3)C(c3ccc(Br)cc3)C2)cc1 (centres undefined)
    -3	-9
O=C1CCC(C(=O)NC(c2ccccc2)c2ccccc2)=NN1
    -11	-11
N#Cc1ccc(CC(C#N)C(=N)C(C#N)C#N)cc1 (centres undefined)
    4	10
CC(C)CC(C(=O)NCCN(C)C)N1C(=O)CSC1c1cccc(C(F)(F)F)c1 (centres undefined)
    6	9
COc1cccc(CSc2nnc(C(C)NC(=O)c3ccccc3Br)n2-c2cc(Cl)ccc2Cl)c1 (centres undefined)
    -7	-4
CCCc1nc(C(=O)N2C[C@@H]3[C@H](C2)[C@H]2CC[C@@H]3O2)cs1
    7	3
COc1cccc(-c2nnn(CCOc3ccccc3)n2)c1
    8	8
COc1cc(CNCCO)cc(Cl)c1OCc1ccc(Cl)cc1Cl
    2	7
CC(C)[C@@H]1C[C@@H]2C[C@H](N(CC(=O)O)C(=O)OCc3ccccc3)C[C@@H]2CO1
    -4	7
Cc1nc2c(OCc3cc(Cl)cc(Cl)c3)cccn2c1N(C)C(=O)CCC1CCCC1
    5	-10
COc1cc(CNC(=O)c2ccc(-c3ccc(Oc4ccccc4)cc3)s2)cc(OC)c1
    3	-1
O=C(NC(c1ccc(-c2ccccc2)cc1)c1cnccn1)C1CCN(Cc2cccs2)CC1 (centres undefined)
    8	-5
COc1ccccc1-c1cc(CNC(=O)c2cccc3ccnn23)on1
    3	1
COc1cc(=O)n(-c2ccccc2C)nc1C(=O)NC(C)(C)C
    2	1
COC(=O)c1coc(CN2CCCC2c2nc3ccc(F)cc3[nH]2)n1 (centres undefined)
    0	-1
Cc1nc(C)n(Cc2nc(C(C)(C)C)cs2)n1
    2	767
Cc1nc(-c2cccc(C(F)(F)F)c2)nc(N2CCN(S(=O)(=O)c3cc(Cl)ccc3Cl)CC2)c1C
    -5	-2
CCSCc1ccc(C(=O)Nc2nccs2)cc1
    6	3
Cn1nc2n(c1=O)CC(C(=O)Nc1cnc3n1CCCC3)CC2 (centres undefined)
    4	4
COCCN(C(=O)c1ccsc1)c1ccc(C#N)cc1
    11	8
O=C(O)CN1C(=O)/C(=C/c2cc(Br)c(O)c(Br)c2)SC1=S
    251*	204*
O=C(CC1CCCCC1)NCCCn1nc(-c2ccc(F)cc2)ccc1=O
    1	-1
O=C(Nc1cccc(-n2cccn2)c1)C1CCCN1C1CCSCC1 (centres undefined)
    11	5
Cc1cc(Cl)cc2c1NC(=O)C2(C)Cc1ccccc1 (centres undefined)
    1	2
CC(=O)Nc1c(C)cc(NC(=O)N2CCCCC2CC(C)C)cc1C (centres undefined)
    2	6
Cc1cc2nc(C(=O)N3CCC4(CCCO4)CC3)cc(C)n2n1
    3	2
COC(=O)c1ccc2occ(-c3oc4ccc(C(=O)OC)cc4c3O)c2c1
    2	8
Cc1ccc2[nH]c(O)c(N=Nc3ccccc3C)c2c1
    -4	-11
CC1CN(C(C)C(=O)Nc2cccc(S(=O)(=O)N3CCOCC3)c2)CC(C)O1 (centres undefined)
    17	10
Cc1cccnc1-n1cnc2ccccc21
    3	12
COc1cccc(CNC(=O)c2ccc(-c3cc(-c4ccc5c(c4)OCCO5)n[nH]3)cc2)c1
    0	5
Cc1nc(NCC2=CCCCC2)c2cnn(C)c2n1
    7	4
COc1cccc(OC)c1C(=O)N1CCN(C(=O)c2ccccc2F)CC1
    4	17
CC(C)(C)CC(C)(C)Nc1c(-c2ccccc2OC(=O)c2cccc(Br)c2)nc2ccccn12
    18	11
O=C(NCC1CCCN(Cc2cccn2-c2ncccn2)C1)C1(c2ccc(Cl)cc2)CC1 (centres undefined)
    -7&12	-7&-2
COc1cccc(-c2cc(-c3ccc(C(=O)NCC4COC(C)(C)O4)cc3)[nH]n2)c1 (centres undefined)
    0	6
O=C(COc1ccccc1)NCC(=O)N1CCN(c2ccc(F)cc2)CC1
    1	-6
Cc1ccc(Cl)cc1-n1c(CNC(=O)c2ccccc2Cl)nnc1SCc1ccc(F)cc1
    5	13
CS(=O)(=O)N1CCN(C(=O)c2cn[nH]n2)CC1
    0	-9
COc1ccccc1CN(Cc1cccs1)C(=O)C1CSC2(C)CCC(=O)N12 (centres undefined)
    -2	-2
C=CCNC(=O)NC1CCN(c2ccccc2C(=O)NCc2cccc(C(F)(F)F)c2)CC1
    1	11
CNC(=O)CN1C(=O)CN(C(=O)Cc2ccc(OC)cc2)CCC(OC)c2ccccc21 (centres undefined)
    7	11
COCCCN(Cc1csc(COc2cc(C)cc(C)c2)n1)C(=O)c1cccc(OC)c1
    17	30

Compounds shown so far that have bromine:
Each structure is followed by: NPYLR7 ag	NPYLR7 ag max-min
COc1ccc(C2=NN(C(=O)c3cccc([N+](=O)[O-])c3)C(c3ccc(Br)cc3)C2)cc1 (centres undefined)
    -3	-9
COc1cccc(CSc2nnc(C(C)NC(=O)c3ccccc3Br)n2-c2cc(Cl)ccc2Cl)c1 (centres undefined)
    -7	-4
O=C(O)CN1C(=O)/C(=C/c2cc(Br)c(O)c(Br)c2)SC1=S
    251*	204*
CC(C)(C)CC(C)(C)Nc1c(-c2ccccc2OC(=O)c2cccc(Br)c2)nc2ccccn12
    18	11

Continued.
Each structure is followed by: NPYLR7 ag	NPYLR7 ag max-min
Cc1ccn2c(NC3CCCCC3)c(-c3ccc(F)cc3)nc2c1
    -6	-3
CSc1ccc(Cn2cc(C(=O)NCc3cccs3)sc2=O)cc1
    10	6
Cc1cc2c(SCC(=O)Nc3cccc(Cl)c3)ncnc2s1
    7	1
COc1cc(S(=O)(=O)NCCCN2CCOCC2)c(OC)cc1Br
    8	7
CCc1nc2ccc(C(=O)Nc3ccc(Cl)c(Cl)c3)cn2c1N(CC)CCN(C)C
    -6	-8
COc1ccc2nc(-c3cccc(NC(=O)C(c4ccccc4)c4ccccc4)c3)cn2n1
    -8	-13
COC(=O)C1=C(C)NC2=C(C(=O)CC(c3ccc(OC)cc3)C2)C1c1ccc([N+](=O)[O-])cc1 (centres undefined)
    -1	-17
CC(C)OC(=NCCN1CCCC1)NC(=O)c1ccco1
    -3	-3
Cn1ccnc1Sc1ccc(NC(=O)C2CC2c2cccnc2)cc1 (centres undefined)
    2	0
CC(=O)Oc1c(-c2ccc(NC(=O)c3cccc(Br)c3)cc2)c(C(C)C)nn1-c1cccc(C)c1
    -10	-5
CCCn1nc(NS(C)(=O)=O)c2cc3ccccc3nc21
    -4	-4
Cc1ccc(Oc2cc(C)nc(SCc3cc(F)ccc3F)n2)c(C)c1
    0	9
Cc1cc(C)c2c(=O)[nH]c(SCC(=O)N(C)C)nc2n1
    -11	-13
O=C1NCC2(CCCN(C(=O)c3cnn(Cc4ccccc4)c3)CC2)O1 (centres undefined)
    5	5
COc1ccc(CC2(CO)CCN(c3cc(N)ncn3)CC2)cc1
    4	-1
O=C1CCC(NC(=O)c2ccccc2Sc2ccccc2)CN1 (centres undefined)
    0	-2
Cc1ccc(C=C2N=C(c3ccc(Cl)cc3)OC2=O)o1
    0	4
O=C(NCCn1nc(-c2cccs2)ccc1=O)c1ccc(-c2ccccc2)cc1
    4	2
COc1ccccc1/C=C1N=C(/C=C/c2ccccc2)OC/1=O
    -2	-5
C/C=C(\C)C(=O)N1CCC(c2nc(-c3ccccc3F)no2)CC1
    -1	-3
CCc1nc(SC(C)c2nc3ccccc3c(=O)[nH]2)n[nH]1 (centres undefined)
    0	6
CNC(=S)N(Cc1ccc(OC)cc1)C1CC(=O)N(c2ccc(OC)cc2)C1=O (centres undefined)
    -3	-5
O=C(CN1CCCCCC1=O)OCc1cc(=O)n2c(n1)sc1ccccc12
    7	2
CCCn1c(=O)c(C(=O)NCc2ccc(F)cc2)nn(-c2ccc(OC)c(OC)c2)c1=O
    -4	-4
COC(C)(OC)c1ccc(C#N)c(SCc2csc(-c3c(F)cccc3F)n2)n1
    3	-2
CC1CCc2c(sc3[nH]c(=S)n(C4CCCC4)c(=O)c23)C1 (centres undefined)
    2	10
Cc1c(Cl)c([N+](=O)[O-])nn1CC(=O)Nc1cc(Oc2cccnc2)cc([N+](=O)[O-])c1
    -1	-6
Cc1ccc(S(=O)(=O)N(Cc2c(-c3ccc(F)cc3)noc2N2CCN(C)CC2)CC2CCCO2)cc1 (centres undefined)
    -6	-6
O=C(NCCCN1CCCc2ccccc21)c1cn(Cc2ccccc2F)nn1
    8	0
CC(C)CCNC(=O)CN(Cc1ccccc1)c1nc(Cc2ccc(Cl)cc2)ns1
    -3	0

Already shown: 2 of the compounds above.
Each structure is followed by: NPYLR7 ag	NPYLR7 ag max-min
O=C1CCC(NC(=O)c2ccccc2Sc2ccccc2)CN1 (centres undefined)
    0	-2
Cc1ccc(C=C2N=C(c3ccc(Cl)cc3)OC2=O)o1
    0	4

(further entries)
Each structure is followed by: NPYLR7 ag	NPYLR7 ag max-min
Cc1ccc(-n2ncc3c(C)nn(Cc4ccc(F)cc4)c(=O)c32)cc1C
    12	7
CC(C)c1ccc(CC(=O)N2CCC2(C)C(=O)Nc2cccc3cccnc23)cc1 (centres undefined)
    10	9
Cc1ccc(C)c(Sc2cc(N3CCC(C(=O)NCCN4CCCC4)CC3)ncn2)c1
    15	13
COc1cccc(CO[C@]2(C(=O)NC3CC3)CC(OCc3cccc(OC(F)(F)F)c3)[C@H](O)[C@H](O)C2)c1 (some centres undefined)
    0	10
Nc1ncnc2c1ncn2[C@@H]1O[C@H](CO)[C@@H](O)[C@H]1O
    52*	47*
Cn1c(C2CCCN(S(C)(=O)=O)C2)nn(CC(=O)N2CCCC2)c1=O (centres undefined)
    -4	4
Cc1cc(NC(=O)Cn2c(=CC(=O)C(C)(C)C)sc(=Cc3ccsc3)c2=O)no1
    32	49
CC(=O)c1cccc(N2C(=O)C3CC=CCC3C2=O)c1 (centres undefined)
    10	8
Cc1ccc(S(=O)(=O)N2C=Cc3ccccc3C2C#N)cc1 (centres undefined)
    1	1
CCOc1ccc(S(=O)(=O)c2cn(Cc3ccccc3)c3ccc(OCC)cc3c2=O)cc1
    -9	-15
CCOC(=O)N1CCN(S(=O)(=O)NC(C)CN(C)c2ccccc2)CC1 (centres undefined)
    0	2
CC(=O)O[C@@H](C)C(=O)N1CCC2(CC1)C(=O)NCN2c1ccccc1
    -2	-1
CC1(C(=O)NS(=O)(=O)Cc2cccc(Cl)c2)CCN1C(=O)C/C=C/c1ccccc1 (centres undefined)
    2	1
Cc1c(NC(=O)c2ccc([N+](=O)[O-])cc2Cl)c(=O)n(-c2ccccc2)n1C
    5	6
CCN(CC)S(=O)(=O)c1ccc(OC)c(N2CCN(C(=O)c3cc(F)ccc3Cl)CC2)c1
    24	12

Looked up above:
Cc1c(Cl)c([N+](=O)[O-])nn1CC(=O)Nc1cc(Oc2cccnc2)cc([N+](=O)[O-])c1 in NPYLR7 ag is listed with -1
Cc1nc(NCC2=CCCCC2)c2cnn(C)c2n1 in NPYLR7 ag max-min is listed with 4
COc1cccc(CNC(=O)c2ccc(-c3cc(-c4ccc5c(c4)OCCO5)n[nH]3)cc2)c1 in NPYLR7 ag max-min is listed with 5
CC1CN(C(C)C(=O)Nc2cccc(S(=O)(=O)N3CCOCC3)c2)CC(C)O1 (centres undefined) in NPYLR7 ag max-min is listed with 10

Carrying on:
Each structure is followed by: NPYLR7 ag	NPYLR7 ag max-min
Oc1cccc(C2c3[nH]c4ccccc4c3CCN2Cc2ccc3c(c2)CCO3)c1 (centres undefined)
    7	5
O=C(CCc1nc(C2CC2)no1)NC1(c2cccc(F)c2)CC1
    2	-1
N#Cc1ccc(CNS(=O)(=O)/C=C/c2ccccc2)c(F)c1
    8	2
CCCCCNC(=O)c1cn(-c2ccccc2C(F)(F)F)nn1
    4	4
Oc1ccc2ccccc2c1C=Nn1c(-c2ccccc2F)csc1=NCC1CCCO1 (centres undefined)
    -4	-10
Cc1ccc(C)c(Cn2nc(C3CCN(S(C)(=O)=O)CC3)n(-c3cccs3)c2=O)c1
    -9	-8
Cc1cc(=O)n2nc(N3CCCC(C(=O)N4CCCCCC4)C3)sc2n1 (centres undefined)
    4	3
Cc1ccc(O)c(C(=O)NCc2ccc(N3CCCC3=O)cc2)c1
    4	2
NC(=O)NC1CCS(=O)(=O)C1 (centres undefined)
    3	8
O=C(c1cccc(F)c1)N(CCN1CCCC1)CC(=O)N1CCc2sccc2C1COc1ccc(F)cc1 (centres undefined)
    -1	3
Cc1ccc2c(C)c(C(=O)N3CCNCC3C(=O)N3CCOCC3)oc2c1 (centres undefined)
    -3	-2
Fc1cccc(CN2CCN(Cc3cccc4nccnc34)CC2)c1
    -1	-5
Cc1c(C(=O)NCc2ccccc2C(F)(F)F)sc(=O)n1CCOc1ccc(F)cc1
    14	8
CCOC(=O)N1CCN(C(=O)CC2(c3ccccc3C)CC(=O)N(Cc3ccccc3)C2=O)CC1 (centres undefined)
    6	4
O=C1N(c2ccccc2)C[C@@H]2C[C@@H](c3cccn3-c3cccnc3)N3CCC[C@@]123
    5	-9
O=C1CC(c2ccccc2)CC2=Nc3ccccc3NC(c3cccc(Cl)c3)C12 (centres undefined)
    -7	-11
CN(Cc1cc(-c2cccnc2)no1)c1nccc(CCC(F)(F)F)n1
    17	15
Oc1oc(-c2ccccc2Br)nc1C=Nc1cccc(F)c1
    -6	-9
N#Cc1cccc(S(=O)(=O)Nc2nnc(CC3CCCC3)s2)c1
    -2	700

Not all compounds are listed; the hit share may differ from the screen's.
